NPYLR7 ag: mosquito NPYLR7 agonism; 270,000 compounds, 0.15% hits; activation, % at 10 µM; HEK293T NPYLR7/Galpha15, GCaMP6s calcium fluorescence; in the data active = activation above about 40%;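 note: 0% = vehicle and 100% = reference agonist at the receptor; some compounds past the cut are filed as inactive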
NPYLR7 ag max-min: further read-out of NPYLR7 ag, marked with its call; activation, %; measured here: Max-Min RFU normalised activation; some inactives read as strong as hits;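 span of the calcium signal over five minutes; 0% = vehicle and 100% = native peptide agonist; compound fluorescence can raise it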
* hit, by the source's call; & = joins results of further samples.

> CSCCC(=O)Nc1cc(-c2ccc(C)cc2)nn1-c1ccccc1
  NPYLR7 ag: 0
  NPYLR7 ag max-min: 9
> CNc1snc(C)c1C(=O)OC(C)C(=O)NC1CCCCC1 (stereo not drawn)
  NPYLR7 ag: 1
  NPYLR7 ag max-min: 0
> CCCN(CCC)C(=O)c1cc(-c2ccccc2OC)nc2cc(-c3ccccc3)nn12
  NPYLR7 ag: 9
  NPYLR7 ag max-min: 12
> CC=CCn1c(SCC(C)C)nc2c1c(=O)[nH]c(=O)n2C
  NPYLR7 ag: -6
  NPYLR7 ag max-min: -8
> CCOc1cc2c(cc1NC(=O)CCl)OC(C)C2 (stereo not drawn)
  NPYLR7 ag: 3
  NPYLR7 ag max-min: 4
> CNS(=O)(=O)c1csc(-c2nc(-c3ccncc3)no2)c1
  NPYLR7 ag: -1
  NPYLR7 ag max-min: 7
> COc1ccc(NC(=O)C(OC(=O)c2cnc(C)cn2)C(C)C)cc1 (stereo not drawn)
  NPYLR7 ag: 1
  NPYLR7 ag max-min: 0
> CCCCCCCC(=O)Nc1c(-c2ccccc2C)nc2cc(C)ccn12
  NPYLR7 ag: -2
  NPYLR7 ag max-min: 7
> Cc1nc(Nc2ccc(NC(=O)COc3ccc(Cl)cc3)cc2)cc(-n2ccnc2)n1
  NPYLR7 ag: -15
  NPYLR7 ag max-min: -18
> O=C1CC(c2ccccc2)CC2=Nc3ccccc3NC(c3ccc(O)cc3)C12 (stereo not drawn)
  NPYLR7 ag: -9
  NPYLR7 ag max-min: -11

> CC1(CCc2ccccc2)NC(=O)N(NC(=O)CCl)C1=O (stereo not drawn)
  NPYLR7 ag: 3
  NPYLR7 ag max-min: 4
> COc1ccc(C)cc1NC(=O)Nc1ccc(Nc2cc(OC(C)C)nc(C)n2)cc1
  NPYLR7 ag: 25
  NPYLR7 ag max-min: 16
> COc1cc(NC(=O)C2(C)CCN2C(=O)C(C)C)cc(OC)c1OC (stereo not drawn)
  NPYLR7 ag: 5
  NPYLR7 ag max-min: 1
> CCOc1cc2c(cc1CN1CCC3(CC1)CNC(=O)C3)CCC2
  NPYLR7 ag: 12
  NPYLR7 ag max-min: 11
> COc1ccc(C)c2sc(N(Cc3cccnc3)C(=O)c3ccc(C#N)cc3)nc12
  NPYLR7 ag: -6
  NPYLR7 ag max-min: -5
> CCN1C(=O)NC(c2ccc(Cl)cc2)C2=C1CN(C(Cc1ccccc1)C(=O)N1CCc3ccccc3C1)C2=O (stereo not drawn)
  NPYLR7 ag: -2
  NPYLR7 ag max-min: 0
> CCN(CC)CCN1CC(=O)N2CC[C@@H](O)C[C@H]2C1=O
  NPYLR7 ag: 2
  NPYLR7 ag max-min: -1
> CCCc1cc(Cn2ccnc2-c2ccc(F)c(F)c2F)on1
  NPYLR7 ag: 17
  NPYLR7 ag max-min: 6
> C=CCn1c(SCC(=O)NC(C)(C)C)nc2c([nH]c3ccccc32)c1=O
  NPYLR7 ag: 0
  NPYLR7 ag max-min: -1
> CC1Cc2ccccc2N1C(=O)Cc1csc2nc(-c3ccc(F)cc3)cn12 (stereo not drawn)
  NPYLR7 ag: 2
  NPYLR7 ag max-min: 1

A second format for part of the listing above.
Fields: NPYLR7 ag, NPYLR7 ag max-min
COc1cc(NC(=O)C2(C)CCN2C(=O)C(C)C)cc(OC)c1OC (stereo not drawn)
→ 5, 1
CCOc1cc2c(cc1CN1CCC3(CC1)CNC(=O)C3)CCC2
→ 12, 11
COc1ccc(C)c2sc(N(Cc3cccnc3)C(=O)c3ccc(C#N)cc3)nc12
→ -6, -5
CCN1C(=O)NC(c2ccc(Cl)cc2)C2=C1CN(C(Cc1ccccc1)C(=O)N1CCc3ccccc3C1)C2=O (stereo not drawn)
→ -2, 0
CCN(CC)CCN1CC(=O)N2CC[C@@H](O)C[C@H]2C1=O
→ 2, -1

Further records
> CCOc1ncccc1CN1CCCC(C(=O)Nc2ccc(-c3ccccc3)cc2)C1 (stereo not drawn)
  NPYLR7 ag: -10
  NPYLR7 ag max-min: -16
> CCCn1c(=O)c2c(nc3n(CC(=O)OCC)c(C)c(C)n23)n(C)c1=O
  NPYLR7 ag: 7
  NPYLR7 ag max-min: 5
> O=S1(=O)NC(=NCC2(c3ccccc3)CCCC2)c2ccccc21
  NPYLR7 ag: 8
  NPYLR7 ag max-min: 1
> CCOC(=O)c1ccc(NC(=O)CSc2nc3c(-c4ccccc4)c[nH]c3c(=O)n2C(C)C)cc1
  NPYLR7 ag: 0
  NPYLR7 ag max-min: -4
> O=c1c(Cl)c(Cl)cnn1-c1nc2ccccc2o1
  NPYLR7 ag: 2
  NPYLR7 ag max-min: 2
> O=C(NC(=O)C1CCNCC1)c1c2c(nc3ccccc13)CCN(CCc1ccccc1)C2
  NPYLR7 ag: 1
  NPYLR7 ag max-min: 7
> CCCc1nc(C)sc1C(=O)Nc1cccc(SC)c1
  NPYLR7 ag: -11
  NPYLR7 ag max-min: -16
> C=CCn1c(CNCC2CCCO2)cnc1S(=O)(=O)Cc1ccccc1 (stereo not drawn)
  NPYLR7 ag: 7
  NPYLR7 ag max-min: 6
> Cc1ccc(-c2cc(O)c3c(c2)CN(CC(=O)Nc2cnn(C)c2)CCO3)cc1
  NPYLR7 ag: 6
  NPYLR7 ag max-min: 5
> CCOC(=O)c1nc2ccccc2nc1N1CCCN(C(=O)c2cc3ccccc3s2)CC1
  NPYLR7 ag: 1
  NPYLR7 ag max-min: -1

> COc1cccc(C(=O)Oc2coc(CSc3nccn3C)cc2=O)c1
  NPYLR7 ag: -3
  NPYLR7 ag max-min: -6
> C[C@@H]1CN(c2nc3nonc3nc2NCc2ccccc2)C[C@H](C)O1
  NPYLR7 ag: -1
  NPYLR7 ag max-min: -2
> CCCCN(C)c1c(CC)nc2ccc(C(=O)NCc3ccccc3OC)cn12
  NPYLR7 ag: 3
  NPYLR7 ag max-min: -8
> CNC(=O)[C@@]1(OCc2cccc(C(F)(F)F)c2)CC(OCc2ccc(C(F)(F)F)cc2)[C@H](O)[C@H](O)C1 (stereo partly drawn)
  NPYLR7 ag: 3
  NPYLR7 ag max-min: 5
> O=C(OCc1cc(-c2ccc3c(c2)OCO3)on1)c1cccs1
  NPYLR7 ag: -2
  NPYLR7 ag max-min: -5
> O=C(Nc1cccc(C(F)(F)F)c1)Nc1nn(Cc2ccc(C(F)(F)F)cc2)c2ccccc12
  NPYLR7 ag: 10
  NPYLR7 ag max-min: 9
> Cc1nn2c(CN(C(=O)COc3ccccc3)c3ccccc3)nnc2c2ccccc12
  NPYLR7 ag: 0
  NPYLR7 ag max-min: 2
> CC(=O)N(C=C1Sc2ccccc2C1=O)c1ccc(C)cc1
  NPYLR7 ag: -3
  NPYLR7 ag max-min: -10
> O=C(CN1C(=O)NC2(CCCCC2)C1=O)N1CCOCC1
  NPYLR7 ag: -2
  NPYLR7 ag max-min: -3
> C=CCN1C(=O)C(=O)N(Cc2cc3c(cc2Br)OCO3)C1=O
  NPYLR7 ag: -2
  NPYLR7 ag max-min: -6

Rewritten with values under each structure: two of the compounds above
Order of results: NPYLR7 ag | NPYLR7 ag max-min
O=C(Nc1cccc(C(F)(F)F)c1)Nc1nn(Cc2ccc(C(F)(F)F)cc2)c2ccccc12
    10 | 9
Cc1nn2c(CN(C(=O)COc3ccccc3)c3ccccc3)nnc2c2ccccc12
    0 | 2

Continuation:
canonical_smiles	NPYLR7 ag	NPYLR7 ag max-min
N#CCN1CCCC1c1ccc(Br)cc1 (stereo not drawn)	8	5
COCCNC(=O)Cn1nc(-c2cccs2)c2sc(N3CCCC3)nc2c1=O	-2	-7
COc1coc(C(=O)Nc2ccc(C)c(F)c2)cc1=O	11	4
CC1CCCN(S(=O)(=O)c2ccc(NS(=O)(=O)C=Cc3ccccc3)cc2)C1 (stereo not drawn)	6	8
CCc1ncc2c(n1)CN(C(=O)c1cccc(-c3ncn[nH]3)c1)C2	2	-5
CCCCCN1CCN(c2nc3c(c(=O)[nH]c(=O)n3C)n2CCc2ccccc2)CC1	-2	5
O=C(c1ccc([N+](=O)[O-])o1)N(Cc1cccnc1)c1nc2ccc(F)cc2s1	-7	-7
CCCc1ccc(C(NC(=O)C2=COCCO2)c2cccs2)cc1 (stereo not drawn)	9	3
COC(=O)c1ccc(S(=O)(=O)N2CCc3c(ncnc3N(C)C)C2)n1C	-5	-7
CC(C)(C)c1ccc(-n2c(=O)[nH]c3c(C(N)=O)nc(-c4ccco4)nc32)cc1	20	13
CCOC(=O)C(=O)N(C)c1c(CC)nc2c(OCc3ccc(OC(F)F)cc3)cccn12	7	6
COc1ccc(-c2nnc(CNC(c3ccc(C)cc3)C3CC3)o2)cc1 (stereo not drawn)	1	0
COc1ccc(-c2cnnc(NCCCSC)n2)c(OC)c1	18&10	6&5
CC(C)Oc1cccc(-n2ccnc2)c1	2	3
Cc1cccn2c(CC(=O)NCCN(C)S(C)(=O)=O)cnc12	2	-3

Continuation:
canonical_smiles	NPYLR7 ag	NPYLR7 ag max-min
O=C(NC1CCN(c2ccccc2C(=O)N2CCCC2)CC1)c1cccs1	-2	0
Cc1nnc(Sc2cc(F)ccc2F)c(C#N)c1C	-7	-9
O=C(NCc1cccnc1)C1COC2(CCN(C(=O)c3cccc(F)c3)CC2)N1C(=O)c1ccco1 (stereo not drawn)	2	13
Cc1onc(C(=O)NC2CCCC2)c1[N+](=O)[O-]	7	7
COc1cc(-c2nnc(CSc3ccc4ccccc4n3)o2)cc(OC)c1OC	-3	-1
CCCC(=O)N1CCC1(C)C(=O)NS(=O)(=O)c1ccc(F)cc1F (stereo not drawn)	0	-3
O=C(CSc1ccc2c(c1)OCCCO2)NN1C(=O)NC2(CCCCC2)C1=O	-3	-4
Cc1ccc(C)c(N(C)CC(=O)NCc2ccc(S(N)(=O)=O)cc2)c1	12	8
Cn1c(=O)c(C#N)cn(Cc2ccc(Cl)c(Cl)c2)c1=O	0	-1
S=C(NCC1CCCO1)N1CCN(C(=S)NCC2CCCO2)CC1 (stereo not drawn)	1	-1
COc1ccc2ccccc2c1C1CC(c2cccs2)=NN1C(C)=O (stereo not drawn)	10	8
CC(C)(C)c1cc2nc(C(F)(F)F)cc(N3CCN(CC(N)=O)CC3)n2n1	0	-3
CN(C)S(=O)(=O)N1CCC2(CCCN(CCCc3ccccc3)C2=O)C1 (stereo not drawn)	2	2
CN(C)CCCNc1ncnc2c1c(-c1ccccc1)cn2-c1cccc(C(F)(F)F)c1	4	5
CC(C)c1noc([C@@H]2C[C@H](NC(=O)Nc3ccccc3)CN2C)n1	-7	-10

Three successive records from above, quoted:
canonical_smiles	NPYLR7 ag	NPYLR7 ag max-min
O=C(NC1CCN(c2ccccc2C(=O)N2CCCC2)CC1)c1cccs1	-2	0
Cc1nnc(Sc2cc(F)ccc2F)c(C#N)c1C	-7	-9
O=C(NCc1cccnc1)C1COC2(CCN(C(=O)c3cccc(F)c3)CC2)N1C(=O)c1ccco1 (stereo not drawn)	2	13

Carrying on:
canonical_smiles	NPYLR7 ag	NPYLR7 ag max-min
c1ccc2sc(Sc3ncnc4sccc34)nc2c1	-3	-6
Cc1c(C)n2c3c(=O)n(CCN4CCOCC4)c(=O)n(C)c3nc2n1Cc1ccco1	13	6
O=S1(=O)CCC(N2CCN(c3ncnc4sccc34)CC2)C1 (stereo not drawn)	-3	2
C=CCN(CC=C)C(=O)CN1C(=O)NC2(CCCCC2)C1=O	-1	-7
CNC(=O)c1ccc(CN(C)S(=O)(=O)c2ccc(F)c(C)c2)o1	-4&-1	-6&-2
COc1ccc(OC)c(C2CC(c3ccccc3OC)=NN2C(=O)CN2CCCCC2C)c1 (stereo not drawn)	21	18
CCc1nc2n(n1)C(=O)C(C(c1cccc(Br)c1)N1CCCCC1)S2 (stereo not drawn)	-1	6
CCC(C(=O)N1CCC(O)(c2ccc3nc(C)ccc3c2)CC1)n1cccn1 (stereo not drawn)	1	0
O=C(NCCC(=O)N1CCCC1)c1ccc(-c2ccc(Cl)cc2)o1	-8	-10
COc1ccc(CN2CCC2(C)C(=O)N2CCCCC2)c2ccccc12 (stereo not drawn)	-1	-9
O=C(NCc1cccnc1)c1cc2ccccc2oc1=O	7	6
CCSc1nnc(NC(=O)Cn2nc(C)c([N+](=O)[O-])c2C)s1	5&-10	16&-19
COc1ccc(C(=O)Nc2ccc(Cl)c(NC(=O)c3ccccc3)c2)cc1[N+](=O)[O-]	10	10
COc1cc(-c2nc3cc(C)ccn3c2NC(C)(C)CC(C)(C)C)ccc1OS(=O)(=O)/C=C/c1ccccc1	3	5
O=C(CN1CCCc2ccccc21)NCCc1ccc(F)cc1	5	1

More records follow:
canonical_smiles	NPYLR7 ag	NPYLR7 ag max-min
CCNC(=O)NC1CCN(c2ccccc2C(=O)N2CCN(C3CCCCCC3)CC2)CC1	25	20
CC(C)c1cc(NC(=O)Cc2ccccc2Cl)n[nH]1	3	2
C=CCOC(CN1CCN(C(=O)C2C[C@H]2c2ccccc2)CC1)c1cccc(OC)c1 (stereo partly drawn)	-4	7
COc1ccc(OC)c(-c2cnc(-c3cccc(CNC(=O)COc4ccccc4)c3)[nH]2)c1	-1	1
CC(=O)Nc1cccc(CNc2ccc(Br)cn2)c1	-7	-6
COc1ccccc1C(=O)N1CCC2(CC1)OCc1cc(-c3cc(OC)c(OC)c(OC)c3)ccc1O2	0	-10
COc1ccc(C2(C)NC(=O)N(Cc3ccccc3C#N)C2=O)cc1OC (stereo not drawn)	5	2
CCC(C)NC(=O)c1cc(NC(=O)Nc2cccc(C(F)(F)F)c2)ccc1N1CCN(c2ccccc2OC)CC1 (stereo not drawn)	-2	7

Some values from above:
CC(C)(C)c1cc2nc(C(F)(F)F)cc(N3CCN(CC(N)=O)CC3)n2n1 | NPYLR7 ag max-min = -3
COc1cc(-c2nc3cc(C)ccn3c2NC(C)(C)CC(C)(C)C)ccc1OS(=O)(=O)/C=C/c1ccccc1 | NPYLR7 ag max-min = 5
CCN(CC)CCN1CC(=O)N2CC[C@@H](O)C[C@H]2C1=O | NPYLR7 ag max-min = -1
CC=CCn1c(SCC(C)C)nc2c1c(=O)[nH]c(=O)n2C | NPYLR7 ag = -6
N#CCN1CCCC1c1ccc(Br)cc1 (stereo not drawn) | NPYLR7 ag = 8
CC(C)c1cc(NC(=O)Cc2ccccc2Cl)n[nH]1 | NPYLR7 ag = 3

Bioassay records deposited in PubChem by Fisher Drug Discovery Resource Center.

These rows are one share of the data; count on the stated rates, not on these rows.
